Screens as filed in PubChem.
SmPrx2 inh: Schistosoma mansoni Prx2 inhibition. AID 448. Potency, µM. hit rate 0.07% among 65,000. S. mansoni Prx2 activity coupled to TGR/GSH (TGR is thioredoxin glutathione reductase), NADPH fluorescence loss, qHTS; some inactives read as strong as hits; active means full or partial inhibition curve with a strong effect at the top dose; inconclusive means weaker partial or single-point curve; inactive means no accepted curve; note: series up to 57 µM; many of its hits are not listed in these tables
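qHTS, coupled TGR/Prx2 format; 15 min compound preincubation at RT; reaction started with H2O2 (2.5 mM aliquot); kinetic NADPH fluorescence decrease, ex 365/em 450 nm.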
LT uptake inh: inhibitors of anthrax lethal toxin internalization; Potency, µM (doses to about 40 µM), without a hit: at the top dose activity change, negative = inhibition, actives largely listed as inhibitors; AID 912; hit rate 0.67% among 70,000; Cells, anthrax lethal toxin internalization, FRET ratio (460/530); active = well fitted falling ratio curve with the 530 nm signal flat; inconclusive = other ratio curves, or a change in one channel alone; inactive = flat curves in the ratio and both channels; the % refers to the ratio; note: % is set by controls: 0 for no effect and ±100 for the full control effect; nearly all actives have a fitted effect of over 50% in size; tested in ME-180 cells; beta-lactamase reporter
The depositor's hits bear a star; ? = inconclusive; . = no result given; [ ] = dose if it differs, or a comment. Potency is the fitted concentration of half-maximal effect.

SMILES | SmPrx2 inh | LT uptake inh
COc1ccc(NC(=O)C2CCCN2S(=O)(=O)c2cccc3cccnc23)c(OC)c1 (stereo not given) | >57 | -9.3%
Cc1oncc1C(=S)Nc1ccccc1 | . | -11.6%
Oc1c(C(O)(c2ccccc2)c2ccc3ccccc3c2O)ccc2ccccc12 | >57 | ?
Cc1nc(NC(=O)C2CC2)sc1C(=O)N1CCCCC1 | >57 | 14.1%
CCCn1c(SCC(=O)N2c3ccccc3Sc3ccccc32)nc2c1c(=O)n(C)c(=O)n2C | >57 | -8.6%
COc1ccc(OC)c(C(c2nnnn2C2CCCC2)N2CCc3ccccc3C2)c1 (stereo not given) | >57 | -23.4%
COC(=O)c1ccc(CSc2nnnn2-c2ccc(C)cc2C)o1 | >57 | -18.4%
COC(=O)C1=C(C)N(c2ccc(F)c(Cl)c2)C(=O)C1 | >57 | 27.6%
Nc1cc(N)nc(SCc2cc(=O)oc3cc4c(cc23)CCC4)n1 | >57 | -21.5%
CN1C(=O)NC2C1N(S(C)(=O)=O)CCN2S(C)(=O)=O (stereo not given) | . | -4.7%
CCOc1cc(C2C(C(=O)c3ccc(C)cc3)=C(C(=O)OC)Nc3nnnn32)ccc1O (stereo not given) | >57 | -0.6%
Cc1c(C(=O)OCc2cc(=O)n3cc(Br)ccc3n2)oc2ccccc12 | >57 | -10.6%
COc1cc(CCN)c(OC)c(OC)c1 | >57 | -6.0%[8 µM]
COc1cc(C(=O)N2CCN(c3ccc(C)cc3C)CC2)cc(OC)c1OC | >57 | -20.3%
Cc1ccc(C)c(C(=O)NCc2ccncc2)c1 | >57 | -6.0%
O=C(CSc1nnc(NCc2ccccc2)s1)c1ccco1 | >57 | 11.3%
Cc1ccc2cc(CCNC(=O)CC(C)C)c(=O)[nH]c2c1 | >57 | 0.8%
O=C(Nc1ccc(N2CCCC2)cc1)c1cccc(F)c1 | >57 | ?
C=CCn1c(COc2ccccc2)nnc1SCC(=O)Nc1ccc(S(N)(=O)=O)cc1 | >57 | -12.4%
COc1ccc2nc(SCC(=O)N3CCCCCC3)c(C#N)cc2c1 | >57 | 3.8%
COc1cccc(C(=O)NCc2nnc(SCC(=O)Nc3nccs3)n2-c2cccc(C)c2)c1 | >57 | ?
CCOC(=O)c1ccc(N2C(=O)c3n[nH]c(C)c3C2c2cccnc2)cc1 (stereo not given) | >57 | 0.2%
O=C(CN1CCN(c2ccccn2)CC1)Nc1ccc(Cl)c(C(F)(F)F)c1 | >57 | -20.2%
COc1ccc(N(Cc2cc3cc(OC)ccc3[nH]c2=O)C(=O)c2cccnc2)cc1 | >57 | -2.8%
COc1ccc(-c2nnc(SCC(=O)N3CCCC3)o2)cc1OC | >57 | 9.4%
Cc1cc(=O)[nH]c(SCn2nnc3ccccc3c2=O)n1 | . | ?
Cc1cc2ccccc2c(=O)n1CC(=O)NCC(=O)N1CCCC1 | >57 | 14.9%
CCS(=O)(=O)N1CCC(C(=O)N2CCOCC2)CC1 | >57 | 4.1%
Oc1ccc(C=Nc2cccc3ncccc23)c(O)c1 | >57 | .
CCOC(=O)c1cc2n(c1C)-c1ccccc1C2=O | >57 | -4.6%
CCCn1c2c(c(O)c(C(=O)Nc3ncccc3C)c1=O)CCCC2 | >57 | -15.4%
C[C@](N)(CCP(=O)(O)O)C(=O)O | >57 | -26.0%
CN(C)CCO[C@@H](c1ccc(Cl)cc1)c1ccccn1 | >57 | 8.8%[3.58 µM]
O=C(OCc1nnc(-c2ccccc2)o1)C1CCN(S(=O)(=O)c2cccs2)CC1 | >57 | 14.8%
O=C(NC1CCCCCC1)c1cccc(N2CCCC2=O)c1 | >57 | 18.5%
CC1=C(C(=O)OCc2ccccc2)C(c2cccc([N+](=O)[O-])c2)NC(=O)N1CCCCCC(=O)O (stereo not given) | . | 3.2%
O=c1cccc(-c2ccccc2)[nH]1 | >57 | -1.7%
CCCC1(C(=O)OCC)NC(c2ccc(N(C)C)cc2)C2C(=O)N(c3ccc(OCC)cc3)C(=O)C21 (stereo not given) | >57 | 5.3%
Cc1nc2ccccc2c(=O)n1CCCn1ccnc1 | >57 | 6.4%
COc1ccccc1-n1c(SCC(=O)NC2CCCC2)nc2cccnc21 | >57 | -14.8%

Ordered by number of heavy atoms (ascending): some entries from above.
SMILES | SmPrx2 inh | LT uptake inh
O=c1cccc(-c2ccccc2)[nH]1 | >57 | -1.7%
CN(C)CCO[C@@H](c1ccc(Cl)cc1)c1ccccn1 | >57 | 8.8%[3.58 µM]
O=C(NC1CCCCCC1)c1cccc(N2CCCC2=O)c1 | >57 | 18.5%

Going on with the list.
SMILES | SmPrx2 inh | LT uptake inh
COc1ccc(COC(=O)c2n[nH]c3ccccc23)cc1F | >57 | -14.0%
CC1(C)CC(=O)c2cc(C(=O)NCc3ccco3)c(=O)n(-c3ccc(Cl)cc3)c2C1 | >57 | 10.8%
CCOC(=O)Cn1c(=O)c2c(nc(Br)n2Cc2ccccc2)n(C)c1=O | >57 | -8.5%
N#Cc1ccc(CSc2nnc(-c3ccccn3)n2-c2ccccc2)cc1 | >57 | .
COC(=O)C/C=C\[C@@H](C)[C@@H](/C=N\OC[C@@H](C)[C@H](OCc1ccccc1)C(C)C)NS(=O)(=O)c1ccc(C)cc1 | . | -10.8%[8 µM]
CCn1c(=O)cc(OCC(=O)N2CCCC2)c2ccccc21 | >57 | 14.8%
CCC1CCCCN1C(=O)CSc1nnc(CNC(=O)c2ccco2)o1 (stereo not given) | >57 | -6.7%
CCN(C(=O)Cc1c(C(=O)O)[nH]c2ccccc12)c1cc(OC)ccc1OC | >57 | 16.9%
Clc1ccc(COn2nnc3ccccc32)c(Cl)c1 | >57 | -14.4%
C/C(O)=C\c1nc(=O)c2c(C)cc(C)nc2n1-c1ccccc1 | >57 | -11.4%
CCOC(=O)CC1Sc2ccccc2NC1=O (stereo not given) | >57 | 4.8%
COc1ccc(C2C(C(=O)O)CC(=O)N2C2CCCCC2)cc1 (stereo not given) | >57 | -1.6%
COCc1c(C)cc(C)c(/C=N/O)c1C | >57 | 3.3%
CCOC(=O)N1CCN(S(=O)(=O)c2ccc(C)c(C)c2)CC1 | >57 | -4.4%
COCCCn1c(-c2ccco2)nc2ccccc2c1=O | >57 | -10.6%
O=C(Nc1ccc(-c2cn3ccccc3n2)cc1)c1cc(Br)ccc1O | >57 | -8.5%[8 µM]
O=P(O)(O)CP(=O)(O)O | >57 | -5.2%
O=C(CN1CCOCC1)Nc1ccc(OCc2ccccc2)cc1 | >57 | -8.7%
COC(=O)c1ccc(CSc2nnc3c(Cl)cc(Cl)cn23)o1 | >57 | -9.2%
CCOC(=O)C1C(=O)N(C(=O)c2ccc(OC)cc2)CC1c1ccccc1 (stereo not given) | . | -7.8%
CC(=O)Nc1sc2c(c1C(c1cccs1)N1CCOCC1)CCCC2 (stereo not given) | >57 | -5.9%
c1csc(-c2ncc3ccccn23)c1 | >57 | 1.0%
O=C(CSCc1nc2ccccc2[nH]1)N1CCN(c2ccc(F)cc2)CC1 | >57 | -4.0%
Cc1ccc(CNC(=O)c2ccccc2NS(C)(=O)=O)cc1 | >57 | -9.6%
CCc1cc2c(c(CC)n1)CCC(=O)N2Cc1ccc(-c2ccccc2-c2nn[nH]n2)cc1 | >57 | ?
CC(NC(=O)c1cccs1)C(=O)NC1=NCCS1 (stereo not given) | >57 | 16.3%
COCCNC(=O)CN(C(=O)CCC(=O)Nc1nccs1)c1ccccc1OC | >57 | 7.1%
N[C@H](CCC(=O)NCS(=O)(=O)O)C(=O)O | >57 | -2.7%
COc1ccccc1CN1CCC2(CC1)CCN(C(=O)c1c(C)noc1C)CC2 | >57 | ?
CC(C)(C)c1cc(C=C(C#N)C#N)cc(C(C)(C)C)c1O | >57 | ?
COC(=O)c1ccccc1NC(=O)c1cnc2sccn2c1=O | >57 | -3.1%
O=S(=O)(c1ccc2ccccc2c1)N1CCN(S(=O)(=O)N2CCOCC2)CC1 | >57 | -5.2%
Cc1cc(C(=O)CSc2nnc(-c3ccco3)o2)c(C)n1CC1COc2ccccc2O1 (stereo not given) | >57 | ?
N#CC1=C(N)SC(N)=C(C#N)C1c1ccnc2ccccc12 | >57 | ?
O=C(Nc1ccccc1OC(F)F)c1ccc(Br)o1 | >57 | 1.9%
CCNc1sc(C(=O)c2cccs2)c(N)c1-c1nc2ccccc2s1 | >57 | ?
O=c1c2ccccc2[nH]c(=S)n1Cc1cccnc1 | . | -3.4%
COc1cccc(NC(=O)CCN2CCN(C)CC2)c1 | >57 | -14.3%
CCCCCCN(C(=O)CCCCCN1C(=O)NC(c2ccc(-c3ccccc3)cc2)C(C(=O)OCc2ccccc2)=C1C)C(C(=O)NCCCC)c1ccc(O)cc1 (stereo not given) | . | 1.1%
COc1ccccc1CN1CCC2(CC1)CCN(C(=O)c1cccc(F)c1)CC2 | >57 | ?
O=C(NC(O)C(=O)c1ccccc1)c1cccs1 (stereo not given) | >57 | ?
COC(=O)c1ccc(C(NC(=O)OCc2ccccc2)/C(=C/[C@@H](C)C(=O)NCc2ccccc2)c2cccnc2)cc1 (stereo not given in full) | . | 12.6%
CC1=C(c2ccccc2)[N+](=O)C2(CCCC2)N1[O-] | . | -12.2%
O=C(NCc1ccc(F)cc1)c1cc2ccccn2n1 | >57 | 0.0%
O=C(Nc1nc(-c2cccs2)cs1)c1ccc(Cl)s1 | >57 | 10µM*
O=c1c(-c2ccccc2)nc2cncnc2n1Cc1ccc(F)cc1 | >57 | -2.2%
CN(Cc1nc(-c2cccnc2)no1)S(=O)(=O)c1ccc2ccccc2c1 | >57 | -22.7%
Cc1nn(C(C)(C)C)c(OC(=O)C2CCCC2)c1S(=O)(=O)c1ccccc1 | >57 | -7.6%
C=CCBr | . | 2.8%
CC(C)Cn1c(N)c(C(=O)COC(=O)C2CCCCC2)c(=O)n(C)c1=O | >57 | -17.9%
Later entries:
SMILES | SmPrx2 inh | LT uptake inh
COc1ccc(-c2nnc3n2N=C(c2cccc(Br)c2)CS3)cc1OC | >57 | 6.7%
CCOc1ccc(C(=O)N(Cc2ccc(N(C)C)cc2)C2CCS(=O)(=O)C2)cc1 (stereo not given) | >57 | -11.7%
Cc1cc(C)c(S(N)(=O)=O)c(C)c1-n1cnnn1 | >57 | 0.0%
Cc1noc(C)c1S(=O)(=O)N1CCC(C(=O)Nc2ccccn2)CC1 | >57 | -0.6%
CCOCCCn1c(=S)[nH]c2cc(C(=O)N3CCC(C(N)=O)CC3)ccc2c1=O | >57 | 2.1%
CCCN1CC[C@@H]2c3cc(O)ccc3CC[C@H]21 | >57 | 6.0%
CCN(c1cccc(C(F)(F)F)c1)S(=O)(=O)c1ccc2c(c1)CCN2C(C)=O | >57 | -1.8%
O=C(O)CCC(=O)N1CCC[C@H]1C(=O)O | >57 | -1.5%
COCCN(C(=O)Nc1ccc(OC)cc1OC)C1CCN(C(C)=O)CC1 | >57 | 4.9%
COc1cccc(-n2c(SCC(=O)OC(C)C)nnc2-c2cccnc2)c1 | >57 | -0.7%
O=C(O)CCN1C(=O)c2ccccc2C1=O | >57 | -20.0%
CC(C)CC(=O)Nc1c2c(nn1-c1ccc(F)cc1)CSC2 | >57 | 1.5%
CCc1ccc(-c2nc(CN3CCC(C(=O)NCCc4ccc(OC)c(OC)c4)CC3)c(C)o2)cc1 | >57 | -2.2%
CCCN1CCC(NC(=O)Nc2ccc(OC)c(OC)c2)CC1 | >57 | .
COC(=O)c1cc(OC)c(OC)cc1-n1cnc2cc(OC)c(OC)cc2c1=O | . | 9.0%
O=C(NCc1ccco1)c1cc(-c2ccc3c(c2)OCO3)on1 | >57 | ?
NS(=O)(=O)c1ccc(NC=C2C(=O)OC3(CCCCC3)OC2=O)cc1 | . | -3.0%
Cc1ccc(C(=O)CC2(O)C(=O)N(C)c3ccccc32)o1 (stereo not given) | >57 | 5.6%
O=C(C1CCC1)N1CCc2cc(S(=O)(=O)NCC3COc4ccccc4O3)ccc21 (stereo not given) | >57 | -22.9%
COc1ccc(C)cc1-n1c(N)c(C#N)c(C#N)c1-c1ccc(OC)c(OC)c1OC | >57 | 10.0%
C#CCOc1nc(OCC#C)nc(OCC#C)n1 | . | 11.0%
CC(=O)N1CCN(C)CC1 | >57 | -6.2%
Nc1nc(N)c(N=Nc2ccc([As](=O)(O)O)c(O)c2)c(N)n1 | ? | ?
CC(C)N1CC(C(=O)Nc2nc3ccccc3s2)CC1=O (stereo not given) | >57 | ?
CCC/C=C(\CCC)C(NP(=O)(c1ccccc1)c1ccccc1)c1ccccc1 (stereo not given) | >57 | ?
COc1ccc(-n2c(=O)c3c4c(sc3n3cnnc23)CC(C)CC4)cc1 (stereo not given) | . | -17.5%
CCOC(=O)c1c(C)n(CCOC)c2ccc(O)cc12 | >57 | -0.7%
Cc1ccc(-c2nc3ccccc3c(=O)n2CCCn2ccnc2)cc1 | >57 | 9.2%
Cc1ccc(NC(=O)CS(=O)CC(=O)NCC2CCCO2)cc1 (stereo not given) | >57 | 1.9%

Rewritten with values under each structure: entries from further up.
Every second line gives: SmPrx2 inh	LT uptake inh
CC(=O)N1CCN(C)CC1
    >57	-6.2%
Nc1nc(N)c(N=Nc2ccc([As](=O)(O)O)c(O)c2)c(N)n1
    ?	?
Cc1ccc(-c2nc3ccccc3c(=O)n2CCCn2ccnc2)cc1
    >57	9.2%
CC(C)N1CC(C(=O)Nc2nc3ccccc3s2)CC1=O (stereo not given)
    >57	?
CCC/C=C(\CCC)C(NP(=O)(c1ccccc1)c1ccccc1)c1ccccc1 (stereo not given)
    >57	?
CCOC(=O)c1c(C)n(CCOC)c2ccc(O)cc12
    >57	-0.7%
C#CCOc1nc(OCC#C)nc(OCC#C)n1
    .	11.0%

This is a subset; count on the stated rates, not on these rows.
